Bioassay records (PubChem BioAssay)
HPGD inh: qHTS Assay for Inhibitors of HPGD (15-Hydroxyprostaglandin Dehydrogenase). 150,000 compounds, 4.3% hits. Potency, µM, for the others: top-dose activity change, negative = inhibition, actives largely listed as inhibitors. purified HPGD, NADH fluorescence kinetic, PGE2 substrate. 15-hydroxyprostaglandin dehydrogenase [NAD(+)] (Homo sapiens), P15428; active = well fitted inhibition curve with a large enough effect (not every such curve was filed as active); inconclusive = small, poorly fitted or top-dose-only effect, or another doubt; inactive = no such curve, though single readings can be large or run the other way;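 note: top concentration of the series not given in the record; plate controls included wells without enzyme; inactives centre near -10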
Target sequence (P15428 whole entry, looked up): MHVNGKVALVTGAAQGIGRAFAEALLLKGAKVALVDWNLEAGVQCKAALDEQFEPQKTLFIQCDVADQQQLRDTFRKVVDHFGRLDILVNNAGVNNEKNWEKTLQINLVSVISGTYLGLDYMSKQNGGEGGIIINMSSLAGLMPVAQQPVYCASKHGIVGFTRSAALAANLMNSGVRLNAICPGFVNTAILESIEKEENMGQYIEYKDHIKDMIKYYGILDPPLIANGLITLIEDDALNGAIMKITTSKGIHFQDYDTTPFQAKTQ
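20 nM HPGD preincubated 15 min at room temperature with compound in 50 mM Tris-HCl pH 8, 0.01% Tween 20. Started with 1 mM NAD+ and 30 uM prostaglandin E2; NADH fluorescence (360/450 nm) read 5 times over 30-s intervals, last minus first.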
* = called active by the depositor; ? = inconclusive; & = joins results of further samples. % is set by controls: 0 for no effect and ±100 for the full control effect; potency is the fitted concentration of half-maximal effect.

HPGD inh,structure
-11%,O=C(O)COc1ccccc1C(Nc1ccccn1)c1cc(Cl)c2cccnc2c1O (configuration not stated)
-4%,O=C(COC(=O)C1CC(=O)N(Cc2ccccc2)C1)Nc1ccc2c(c1)OCO2 (configuration not stated)
-13%,COc1ccc(/C=N/Nc2nc3ccccc3c(=O)n2-c2ccccc2)cc1OC
-4%,O=C(CC(Nc1ccccc1)c1ccc(F)cc1)c1ccccc1 (configuration not stated)
-24%,CCc1c(C)sc(NC(=O)/C=C/c2ccc3c(c2)OCO3)c1C(=O)OC
-11%,COc1ccc(NC(=O)C(=O)NNC(=O)c2cccs2)cc1
-18%,O=C(NCc1ccc(Cl)cc1)c1ccc(-c2ccccc2C(F)(F)F)o1
1%,Cc1cc(Cl)c(OCCCN(C)C)c(Br)c1
-19%,CCCCN(CC)CCCNC(=O)CC1Nc2ccccc2NC1=O (configuration not stated)
1%,CN[C@@H]1[C@H](O[C@@H]2O[C@H](CO)[C@@H](N)[C@H](O)[C@@H]2O)O[C@H]2C[C@@H](N)[C@@H](O[C@H]3[C@@H](O)[C@H](O)[C@H](N)C[C@@H]3N)O[C@H]2[C@H]1O
-12%,COc1ccc(-c2noc(C(C)n3nc(C)c([N+](=O)[O-])c3C)n2)cc1OC (configuration not stated)
3%,CN1CCN(CCCNN)CC1
9%,O=S(=O)(Nc1ccc(S(=O)(=O)N2CCCCC2)cc1)c1cccs1
-22%,Cn1c(=O)cc(SCC(=O)N2CCN(C(=O)c3ccco3)CC2)c2ccccc21
16µM*,O=C(CC1Sc2ncnn2C1=O)Nc1ccc(Br)cc1 (configuration not stated)
0%,CC1=C(C#N)C(NC(=O)c2ccccc2Cl)(C(F)(F)F)C(=O)N1 (configuration not stated)
-12%,Cc1cc(OCC(=O)N2CCOCC2)c(C(C)C)cc1Cl
-9%,C/C(=N\Nc1nnc(C)c(=O)[nH]1)C(=O)O
-9%,O=C1c2ccccc2CN1CCNS(=O)(=O)c1ccc2ccccc2c1
?,COc1ccc2c(C)cc(N3CCOCC3)nc2c1
-8%,COc1ccc(C(=O)NN2CC(O)=C(c3nc4ccccc4n3C)C2=N)cc1OC
7%,CCc1nnc(NC(=O)CSc2nnc(CNc3cccc(Cl)c3)n2CC)s1
-9%,CC(C)CC(=O)N1CCC(O)(CS(=O)(=O)Cc2ccccc2Cl)CC1
-2%,O=C(CCS(=O)(=O)c1ccc(Br)cc1)Nc1cc(F)ccc1F
?,Cc1ccccc1-c1cncnc1Nc1ccc(F)cc1

Some of the entries above, reformatted.
> COc1ccc(/C=N/Nc2nc3ccccc3c(=O)n2-c2ccccc2)cc1OC
  HPGD inh = -13%
> O=C(CC(Nc1ccccc1)c1ccc(F)cc1)c1ccccc1 (configuration not stated)
  HPGD inh = -4%

The list goes on:
HPGD inh,structure
?,O=C1CC(c2ccc(F)cc2)Cc2nc(N3CCc4ccccc43)ncc21 (configuration not stated)
-3%,S=C(c1cccs1)N1CCCC1
-25%,C#CCn1c(=NC(=O)c2cc(-c3cccs3)nc3ccccc23)sc2cc(S(N)(=O)=O)ccc21
-15%,Cc1ccc(NC(=O)C2CC(=O)N/C(=N/NC(=O)c3ccc(C)cc3)S2)cc1 (configuration not stated)
?,COc1ccccc1OCC(=O)NCc1ccco1
-7%,Cc1cc(C)cc(NC(=S)N2CCN(c3ccc(F)cc3)CC2)c1
0%,Cc1ccc(C)c(NC(=S)N2CCN(CCO)CC2)c1
-7%,O=c1oc2ccccc2c2c1nc(C(F)(F)F)n2-c1ccccc1
-18%,COc1ccc(Cn2cc(C(=O)c3ccccc3)c(=O)c3cc(OC)ccc32)cc1
-7%,CCn1c(CNC(=O)COc2ccc(C(C)C)cc2)nnc1SCC(=O)Nc1ccccc1C(C)C
?,CCOC(=O)C1CCCN(C(=O)Cn2sc3nc(C)cc(C)c3c2=O)C1 (configuration not stated)
-2%,CCOC(=O)CSc1nnc(CNC(=O)c2cccc(C)c2)n1-c1ccccc1OC
-17%&-6%,O=C1C(O)=C(O)C(=O)C(O)=C1O
-24%,CSc1nsc(SCC(=O)Nc2ccccn2)n1
-12%,CCOC(=O)c1c(C)nc2c(c1-c1ccccc1)C(=O)CCC2
-16%,CCc1nnc(N/N=C/c2cccs2)n1N
?,COc1ccc2c(COC(=O)c3n[nH]c4ccccc34)cc(=O)oc2c1
-11%,CN(C)S(=O)(=O)c1ccc(NC(=O)N2CCN(c3ccccc3)CC2)cc1
-14%,CCOC(=O)CSc1nnc(Cn2c(=O)sc3ccccc32)n1C
-11%,COc1ccc(C(CC(=O)O)NC(=O)COc2ccc(C)cc2)cc1OC (configuration not stated)
-7%,Cc1cccc(CSc2nc3sc(C)c(C)c3c(=O)n2Cc2ccco2)c1
?,O=C(c1cnn2c(C(F)(F)F)cc(-c3ccco3)nc12)N1CCc2ccccc2C1
0%,COc1ccc(OC)c(NC(=O)CSc2nnc(-c3ccco3)n2-c2ccccc2)c1
-13%,Cc1nc2sc(C(c3ccccc3)N3CC(C)OC(C)C3)c(O)n2n1 (configuration not stated)
-27%,O=[N+]([O-])c1cc2c(cc1/C=N\NS(=O)(=O)c1ccccc1)OCO2
-16%,Clc1ccc(Oc2cnns2)c(Cl)c1
-10%,COC(=O)c1nn(-c2cccc(C(F)(F)F)c2)c(=O)cc1Sc1ccccn1
-13%,Cc1ccc(-c2csc3ncn(/N=C/N(C)C)c(=O)c23)o1
-11%,O=C(CNC(=O)c1cnccn1)Nc1ccc(F)c(F)c1F
-11%,Cc1cc(=S)n(-c2ccccc2)n1C
-3%,Cc1ccc(S(=O)(=O)N2CCN(C(=O)CCC(=O)NC3CCCc4ccccc43)CC2)cc1 (configuration not stated)
-1%,C=CCn1c(N2C(=O)CC(Cc3ccccc3)C2=O)nc2ccccc21 (configuration not stated)
-12%,CCCCOc1ccc(/C=N/NC(=S)Nc2cccc(C)c2C)cc1
?,COc1ccccc1-c1cc(C(F)(F)F)nc(NCc2cccs2)n1
-15%,O=C(Nc1ccc(Cl)c(Cl)c1)c1csc(-c2ccccc2)n1
-8%,O=C(c1cccc(C(F)(F)F)c1)N1CCC(O)(CS(=O)(=O)Cc2ccc(Cl)cc2)CC1
-7%,CCc1oc(C(=O)O)cc1COC
-20%,CNc1nc(C)c(C(C)=O)cc1C#N
-7%,O=S(=O)(NCC(Nc1ccc(Cl)cc1)c1ccccc1)c1ccc(Cl)cc1 (configuration not stated)
-16%,CCN(CC)S(=O)(=O)c1cc(NC(=O)C(=O)c2c(-c3ccccc3)cc3ccccn23)ccc1C
-4%,COc1cccc(NC(=O)Cn2c(=O)n(CC3CCCO3)c(=O)c3ccccc32)c1 (configuration not stated)
-23%,CC(C)(C)c1ccc(/C=N/NC(=O)Cc2c[nH]c3ccccc23)cc1
-14%,C=C1C(=O)OC2C1CC/C(C)=C/CCC1(C)OC21 (configuration not stated)
-3%,COc1ccc(C(N)=S)cc1
-13%,Cc1ccc(N/N=C/c2cccnc2)cc1
-12%,Nc1n[nH]c(N)c1N=Nc1cccc(F)c1
-19%,C/C(=N\O)C(=O)NCc1ccccn1
-16%,Cc1cc(=O)[nH]c(SCCCOc2ccccc2Cl)n1
?,C=C(Cl)COc1ccc2c(C)cc(=O)oc2c1
-11%,CCc1ccc(-c2ccc(C(=O)C(F)(F)F)[nH]2)cc1

Carrying on.
HPGD inh,structure
1%,CC(=O)Nc1ccc(S(=O)(=O)N2CCN(C(=O)N3CCCCCC3)CC2)cc1
-7%,Cc1cc(NC(=O)COC(=O)[C@H](C)NC(=O)c2ccccc2)no1
-22%,Cc1cccc(C)c1NC(=O)CN1C(=O)S/C(=C\c2cccn2-c2cccc(C(=O)O)c2)C1=O
1%,COC(=O)CCc1c(C)nc(N)[nH]c1=O
-9%,Cc1nn(C)c(C)c1CN(C)C(=O)C1(C)CC1(Br)Br (configuration not stated)
-5%,O=C(CSCc1ccc(Cl)cc1)Nc1ccc(S(=O)(=O)N2CCCCCC2)cc1
-4%,CCC(Sc1nc(C)cc(C)n1)C(=O)O (configuration not stated)
-1%,OC(CN1C2=NCCCN2c2ccccc21)c1ccc(Cl)cc1 (configuration not stated)
?,CCc1cc2c(SCC(=O)N3CC(=O)Nc4ccccc43)ncnc2s1
-10%,C/C(=N/NC(=O)c1ccoc1C)C12CC3CC(CC(C3)C1)C2
-8%,O=C(CCc1ccc(S(=O)(=O)NCCc2ccccc2)cc1)NCc1ccc2c(c1)OCO2
28µM*,CC(C)OC(=O)c1sc2nc3c(cc2c1N)C(=O)CCC3
-10%,Cn1c(NC(=O)c2cc(Cl)ccc2Cl)cc(=O)n(C)c1=O
-14%,CCOC(=O)c1ccc(NC(=O)c2c(C)[nH]c(C(=O)OCC)c2C)cc1
-22%,Clc1ccc(Cc2noc(-c3cccs3)n2)cc1
-5%,Cc1noc(C)c1C(=O)N1CCC2(CCCN(C(=O)Nc3ccccc3)C2)CC1
-5%,CC(=O)Nc1nonc1NC(=O)c1ccc(F)cc1
-12%,COC(=O)[C@H]1CC=C[C@H]2CCN(Cc3ccc(Cl)c(Cl)c3)C(=O)[C@@H]12
?,CCN1CCCC1Cn1cnc2c([nH]c3ccc(Cl)cc32)c1=O (configuration not stated)
-10%,CN(C)c1ccc(/C=C/c2nnnn2-c2ccccc2)cc1
-1%,COc1ccc(N2CCN(C(=O)CCCC3=NS(=O)(=O)c4ccccc4N3)CC2)cc1
-4%,COc1ccc2c(c1)O[C@@H](c1cccc(C(F)(F)F)c1)[C@H](OC(=O)NCc1ccco1)C2=O
-8%,O=C(CCCCCN1C(=O)C2C3C=CC(C3)C2C1=O)Nc1nccs1 (configuration not stated)
-24%,CCCCn1c(O)c(N=NC(=O)c2ccco2)c2ccccc21
-13%,CCOc1ccc(OCCSc2nnnn2-c2ccccc2)cc1

Part of the list above in another layout.
mol | HPGD inh
CC(=O)Nc1ccc(S(=O)(=O)N2CCN(C(=O)N3CCCCCC3)CC2)cc1 | 1%
Cc1nn(C)c(C)c1CN(C)C(=O)C1(C)CC1(Br)Br (configuration not stated) | -9%
Cn1c(NC(=O)c2cc(Cl)ccc2Cl)cc(=O)n(C)c1=O | -10%
CCc1cc2c(SCC(=O)N3CC(=O)Nc4ccccc43)ncnc2s1 | ?
O=C(CCCCCN1C(=O)C2C3C=CC(C3)C2C1=O)Nc1nccs1 (configuration not stated) | -8%

At a glance, part of the list above:
HPGD inh,structure
-4%,COc1ccc2c(c1)O[C@@H](c1cccc(C(F)(F)F)c1)[C@H](OC(=O)NCc1ccco1)C2=O
-8%,O=C(CCCCCN1C(=O)C2C3C=CC(C3)C2C1=O)Nc1nccs1 (configuration not stated)
-24%,CCCCn1c(O)c(N=NC(=O)c2ccco2)c2ccccc21
-13%,CCOc1ccc(OCCSc2nnnn2-c2ccccc2)cc1

Later entries
HPGD inh,structure
-7%,COc1ccc(N(C(C)=O)C2C=CS(=O)(=O)C2)c(OC)c1 (configuration not stated)
-5%,CCn1c(=O)cc(OCC(=O)N2CCc3ccccc32)c2ccccc21
-4%,COc1ccc(S(=O)(=O)N(Cc2ccccc2)Cc2nc3ccccc3c(=O)[nH]2)cc1
-19%,C=CCN1C(=O)/C(=C\c2cccs2)C(C(=O)OC)=C1C
-10%,CC(=O)c1ccc(NC(=O)C2CCC(C)(C(=O)O)C2(C)C)cc1 (configuration not stated)
-15%,CCOC(=O)Cc1csc(NC(=O)c2sc3nc4c(C)cc(C)cc4cc3c2N)n1
-20%,COCCNC(=O)C(OC(=O)c1cc2oc(C)cc2n1C)C(C)C (configuration not stated)
?,O=C(NCCNc1ccc([N+](=O)[O-])cc1)c1ccccc1Br
-3%,C[C@@H](O)CCC[C@H](O)/C=C/[C@@H]1[C@@H](C/C=C\CCCC(=O)O)[C@@H](O)C[C@H]1O
-12%,COc1ccc(NC(=O)CN2CCCCC2)c([N+](=O)[O-])c1
-4%,O=C(Cn1c(=O)c2sccc2n(Cc2ccc([N+](=O)[O-])cc2)c1=O)NCCc1ccccc1
-12%,O=C(Nc1ccc2c(c1)OCCO2)C1CCN(S(=O)(=O)c2ccc3c(c2)OCCO3)CC1
?,O=C(NCc1cccs1)c1nn2cccnc2c1Cl
-3%,CCOC(=O)C1C(=O)NC(N2CCOCC2)=NC1c1ccco1 (configuration not stated)
-10%,N#Cc1cccc(NC(=O)N2CC[C@@]3(CCCN(C(=O)c4ccncc4)C3)C2)c1
-11%,COc1ccc(S(=O)(=O)n2nc(-c3cc(OC)c(OC)c(OC)c3)cc2N)cc1OC
0%,CC1(C)CC(=O)C=C(NCCN2CCN(C(=O)Nc3ccccc3)CC2)C1
-5%,CC12CCC(C(=O)N3CCCc4ccccc43)(CC1=O)C2(C)C (configuration not stated)
-9%,O=C(Nc1ccccc1C(F)(F)F)N1CCCC(O)C1 (configuration not stated)
-25%,Cc1nc(C)c(-c2csc(NCCc3ccccc3)n2)s1
-26%,CC1CC(=O)c2cnc(N3CCOCC3)nc2C1 (configuration not stated)

An excerpt (hit frequency here may not be typical).
